High-throughput results from PubChem.
Sa RN4220 lethal – growth inhibition of S. aureus RN4220, primary screen, OD600; 16 h; AID 1259311, 2017; inhibition, % (test concentration not listed); 330,000 tested, 0.33% active;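 active means z-score of -3 or lower and OD600 up to 0.18 on both plates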;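 further: plate controls were untreated cells for no effect and reference antibiotic for full effect; stock transfer was 100 nL into about 80 µL; one replicate is shown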
Autofluor counter – compound fluorescence in toxin protease inhibitor counterscreen. compound autofluorescence counterscreen, microsphere flow cytometry; active compounds read high. fluorescence intensity (test concentration not listed). 360,000 tested, 3.1% active. AID 624483;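 active means at least 3 SD above the mean of all compounds, about 16000 in these data; inconclusive means too few beads counted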;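 further: 100 nL of 1 mM stock went into each well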
BJeLR viability – MLPCN primary cell-based screen for lethality selective to Ras in HRASV12 cells; BJeLR (HRASV12) viability, CellTiter-Glo ATP luminescence, 48 h; reference of the scale not given here; 300,000 tested, 0.17% active; inhibition, % (concentration not given with the values);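 active means replicate mean above 50%; inconclusive means above 50% but judged a plate artefact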;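 further: 50 nL library stock added to about 25 µL; numbers are from one replicate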
Mtb hypoxia rep – PubChem AID 1159583. M. tuberculosis hypoxia-regulated fluorescent reporter, fluorescence. fluorescence inhibition, % (test concentration not listed). 300,000 tested, 0.1% active;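 active means 35 to 45% if threefold the growth effect, above 45% if 1.5-fold the growth effect; inactive means the rest, general growth blockers included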;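 further: wells of about 50 µL received 100 nL stock; 0% = vehicle wells and 100% = reference inhibitor wells; whole bacteria with a GFP reporter of the hypoxia response; strong numbers were not always called active; many hits fall short of the cut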
Sa ugtP lethal – growth inhibition of ugtP-null S. aureus, primary screen, RN4220 ugtP deletion, OD600 | AID 1259309, 2017 | growth inhibition, % (test concentration not listed) | 330,000 tested, 0.54% active | 16 h; some inactives read as strong as hits;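 active means z-score under -3 and OD600 up to 0.15 on both plates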;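 further: plate controls were untreated wells for no effect and antibiotic for full effect; wells of about 80 µL received 100 nL stock; the first replicate is given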
PrP 5UTR inh – inhibition of PrP 5' UTR reporter expression; cell-based PrP 5' UTR mRNA reporter, plate reader; inhibition, % (no concentration beside the values); 340,000 tested, 0.35% active;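 active means every replicate at 50% or more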;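 further: 0 = median of the neutral control wells; tested in H4 reporter cells; numbers are from one replicate; inactives centre near -14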
Mtb hypoxia rep growth – second read-out of Mtb hypoxia rep, no call of its own (marks repeat the call); growth inhibition, %; measured here: M. tuberculosis growth (absorbance);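 0% = vehicle and 100% = reference antibiotic; read after six days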
An asterisk follows results filed as active; ? = inconclusive; · = no result given; & = joins results of further samples.

SMILES	BJeLR viability	Mtb hypoxia rep growth	Mtb hypoxia rep	Sa ugtP lethal	Sa RN4220 lethal	PrP 5UTR inh	Autofluor counter
CC(C)(C)c1ccc(-c2noc(CCC(=O)Nc3cccnc3)n2)cc1	4	·	·	·	·	65*	6301
COc1ccc(NC(=O)CCNC(=O)Cn2ccc3ccccc3c2=O)c(OC)c1	·	11	1	-3	0.5	-12	9094
Cc1nnc(SCC(=O)Nc2cc(C(C)(C)C)nn2-c2ccccc2)s1	-10	9	11	14	4.9	-20	10666
Cc1ccc(S(=O)(=O)N(CCCO)Cc2cc3c(C)ccc(C)c3[nH]c2=O)cc1	-13	5	8	-12	3.8	-17	11497
O=C(Nc1ccccc1-c1ccccc1)C(c1ccccc1)c1ccccc1	-3	-2	0	19	12	-32	2180
COc1cc(/C=N/NC(=O)c2ccc(CN(C)S(=O)(=O)c3ccc(C)cc3)cc2)ccc1O	4	·	·	·	·	-11	3939
c1ccc(-c2cc(CSc3nc4ccccc4[nH]3)on2)cc1	-1	·	·	6	-4.0	-19	5985
COc1cccc(-c2nn(C)c3sc(C(=O)N4CCOCC4)cc23)c1	20	5	-1	-5	6.6	-22	4367
Cc1ccc(NC(=O)CSc2nc3ccccc3c(=O)n2CCCC(=O)NCC2CCCO2)cc1 (stereo not drawn)	2	4	9	-1	2.9	-11	4938
CC1(c2ccccc2)NC(=O)N(NC(=O)COC(=O)c2cc(Br)ccc2O)C1=O (stereo not drawn)	-7	4	3	4	4.4	-17	5569
COc1ccccc1/C(C)=N/NC(=O)c1nnn(-c2nonc2N)c1C(C)C	0	·	·	·	·	-12	4093
CN1CCCN(C(=O)c2c(F)cccc2Cl)CC1	-4	4	4	8	-1.3	-21	4109
O=C1CCCC(=O)C1Sc1ccc(Cl)cc1	-6	-19	-14	1	5.8	-12	4463
Cc1ccccc1N1CCN(CCCCN2C(=O)C3CCCN3C2=O)CC1 (stereo not drawn)	10	16	10	11	3.7	-43	7486
COc1ccc(NC(=O)C2=CC=CN3CCS(=O)(=O)N=C23)c(OC)c1	·	3	5	4	1.9	-16	2820
CCn1cc(C(=O)N2CC=C(c3ccccc3)CC2)c(=O)c2ccc(C)nc21	-4	-4	0	15	6.6	-27	11127
O=C(COc1nncc2ccccc12)Nc1c(F)c(F)c(F)c(F)c1F	-15	5	11	4	3.9	-15	4215
Cc1ccc(C(=O)N/C(=C\c2ccco2)C(=O)NCCCn2ccnc2)cc1	4	7	-3	-2	-7.7	-4	10249
COc1ccccc1/C=C/C=Nn1c(-c2ccccc2)n[nH]c1=S	·	8	12	-7	4.5	·	·
O=[N+]([O-])c1ccccc1CSc1nc2ccccc2o1	-3	3	-1	13	6.6	-34	2377
CN(CC(=O)Nc1ccc(Cl)c(C(F)(F)F)c1)C(=O)c1ccc2c(c1)OCCO2	-5	-4	3	-12	-2.1	-5	5425
Cc1ccc(C(=O)c2c3ccccc3[n+]([O-])n2[C@@H](C)C(N)=O)cc1	-1	·	·	·	·	-49	4232
C(=N\n1cnnc1)/c1ccc2c(c1)OCCO2	-13	·	·	·	·	-12	7927
C=CCn1c2ccccc2c2nnc(SCC(N)=O)nc21	-9	8	4	2	4.9	-17	3448
Cc1ccc(-c2nc3ccc(Cl)cc3c(=O)n2O)cc1	3	0	12	0	18	-6	2726
COC(=O)c1cc(S(=O)(=O)NC2CCCCC2)cn1C	9	2	-1	-2	-2.1	-7	5458
O=C(O)c1cc(Sc2ccc(Br)cc2)nc2ccccc12	3	4	-5	-11	1.1	-3	5160
OCC[N+]12CCC(CC1)C(C(O)(c1ccccc1)c1ccccc1)C2 (stereo not drawn)	1	3	15	7	3.5	-11	6695
OCCOCCNc1ncnc2nc[nH]c12	8	6	9	11	3.4	-20	6060
CC(=O)c1cccc(NC(=O)CCS(=O)(=O)c2cccc3nonc23)c1	·	17	15	6	6.2	-6	7260
CS(=O)(=O)c1ccc(Cl)c(NC(=O)c2cccc(N3C(=O)CCC3=O)c2)c1	-10	0	-2	4	1.4	-17	6003
Cc1ccc(C(=O)NNC(=O)c2ccccc2)cc1S(=O)(=O)N1CCCCC1	·	-4	6	-1	3.9	-39	8109
Cn1cccc1CC(=O)NN=C/C=C/c1ccccc1	·	4	-1	6	3.2	·	·
CN(Cc1ccncc1)C1CC(=O)N(c2ccc(Cl)cc2)C1=O (stereo not drawn)	-4	·	·	1	-1.6	-8	2724
CCc1[nH]nc(C(=O)N2CCCC(CO)(Cc3ccc(F)cc3F)C2)c1C (stereo not drawn)	7	10	8	-1	2.7	0	5432
O=C(O)c1cc(N=Cc2c(O)c3ccccc3oc2=O)ccc1O	-5	-3	-5	-1	1.3	-34	3740
Cc1ccccc1-c1ccc(C(=O)NCc2ccccc2)o1	0	5	3	5	4.9	-4	3818
COc1ccccc1N(C)S(=O)(=O)c1ccc(C(=O)Nc2ccc(C)cc2C)cc1	·	8	4	-11	7.4	-5	?
Cc1cccc(NS(=O)(=O)c2ccc3c(c2)OCCO3)c1	8	12	12	7	12	-9	5967
Cc1cccc(-c2nc(CS(=O)CC(=O)NCC3CCCO3)c(C)o2)c1 (stereo not drawn)	-1	9	6	-3	-6.0	-24	5525
O=C(CCn1c(=O)c2ccccc2n(CC(=O)NC2CCCC2)c1=O)NCCc1ccc(Cl)cc1	10	9	5	-1	5.6	-17	4269
O=C(c1ccc(C(=O)N2CCCc3ccccc32)s1)N1CCCc2ccccc21	2	10	8	-10	2.3	-17	9169
CN(Cc1ccccc1)C(=O)c1[nH]cnc1C(=O)NCCCCCNC(=O)OC(C)(C)C	·	5	-3	2	7.7	-22	4381
COc1ccc(CN(C(=O)c2cc(=O)c3cc(C)cc(C)c3o2)C2CCS(=O)(=O)C2)cc1 (stereo not drawn)	-2	4	9	5	4.8	-7	3863
O=C1c2[nH]nc(-c3ccccc3O)c2C(c2ccc(F)cc2)N1CC1CCCO1 (stereo not drawn)	3	4	6	-6	5.3	-11	9799
NC(=O)c1ccccc1NC(=O)/C=C/C(=O)O	5	5	4	-1	3.1	-9	9051
C=CCNC(=S)N1CCN(c2cccc(C(F)(F)F)c2)CC1	6	-6	10	-5	2.5	-35	2072
COc1ccccc1-c1csc(Cc2nnc3n2CCCCC3)n1	0	·	·	-10	0.8	-11	2619
O=C(Cc1ccc(S(=O)(=O)N2CCCCC2)s1)Nc1cccc2ccccc12	2	·	·	·	·	-7	2692
O=C(Nc1c(Cl)cccc1Cl)c1cc(=O)n(Cc2ccccc2)c(=O)[nH]1	5	11	9	6	14	-16	21337*

Going on with the list:
SMILES	BJeLR viability	Mtb hypoxia rep growth	Mtb hypoxia rep	Sa ugtP lethal	Sa RN4220 lethal	PrP 5UTR inh	Autofluor counter
Cc1cccc2c(=O)c(C(=O)NCc3cccs3)c[nH]c12	-5	9	16	2	4.6	-38	10734
COCCNC(=O)C(c1ccc(F)cc1)N(Cc1ccccc1)C(=O)CCC(=O)Nc1ccccn1 (stereo not drawn)	2	3	12	9	4.9	-20	2977
O=C(NCc1ccccc1)C1=CC(c2ccc(Br)cc2)CC(OCCCCO)O1 (stereo not drawn)	·	4&13	-4&10	-9&-4	1.1&-2.6	·	·
O=C1NC(=O)C2(CCCCCC2)N1	·	-1	-5	3	3.7	-26	4506
OCCCNCc1cccc2ccccc12	-5	·	·	-1	0.8	-8	2320
CCCC(=O)NCCc1nc2ccccc2n1CC(=O)c1ccccc1	-1	11	12	7	-1.2	-5	9891
Cc1ccc2n(n1)c(=O)c(Cc1ccccc1)c([O-])[n+]2-c1ccccc1	-3	6	9	2	4.7	-8	1721
OCC1(Cc2ccccc2)CCN(C2CCN(c3ccc(F)c(F)c3)CC2)CC1	4	-2	6	2	3.4	-10	2548
Cc1cccc(C)c1OCCN1CCCC1	0	-2	0	1	2.3	-9	3916
CCOc1ccc(N(CC(=O)Nc2ccc(C)c(C)c2)S(=O)(=O)c2c(C)[nH]c(=O)[nH]c2=O)cc1	8	7	9	2	-0.7	-13	6304
COc1ccc2nc(C)cc(NN=Cc3cccc(OC)c3O)c2c1	·	·	·	-8	21	·	·
O=C(COC(=O)CCNS(=O)(=O)c1ccccc1)Nc1ccc(OC(F)F)cc1	·	7	-6	-1	1.0	·	6103
COc1ccc(/C=C/CN2CCC(CO)(Cc3ccccc3Cl)CC2)cc1	7	8	-7	-18	-4.2	-7	4427
O=C(c1ccc2c(c1)OCCCO2)N1CCCCC1	-1	4	10	-2	2.7	-36	4963
O=C(Nc1cccc(S(=O)(=O)N2CCCCCC2)c1)C1CCN(C(=O)c2ccc(Cl)cc2)CC1	13	16	0	-1	-1.9	-4	?
NNC(=O)c1[nH]c2ccc(Cl)cc2c1-c1ccccc1	6	9	7	-17	-12	-19	3975
CC(C)Cc1nc2sc3c(SCC(N)=O)ncnc3c2c2c1CCC2	-11	-1	-8	15	-3.6	-11	3704
CCCCc1ccc(S(=O)(=O)Nc2cc(C)on2)cc1	2	-2	-8	-18	15	-2	12976
CNC(=O)c1sc(-c2ccc(Cl)cc2)nc1C	-10	3	8	-6	11	-64	2435
O=C(O)CCC(=O)Nc1ccc(SSc2ccc(NC(=O)CCC(=O)O)cc2)cc1	-3	9	18	-4	2.9	-19	3816
CC(=O)N1CCOc2ccc(S(=O)(=O)N3CCC(C(=O)NCc4ccc(C)cc4)CC3)cc21	0	3	1	9	5.3	-10	3939
CC(=O)N(CC(C)C(=O)O)c1c(I)cc(I)c(N)c1I (stereo not drawn)	·	6	2	10	5.7	3	4146
CC(C)CC(=O)N1CCN(c2ccc([N+](=O)[O-])cc2Cl)CC1	-7	6	14	-10	-4.2	-26	2472
O=C(NCc1ccco1)c1ccc(N2CCCCC2)c([N+](=O)[O-])c1	-15	7	13	16	-2.6	-6	10934
COc1ccc(Br)cc1-c1noc(-c2ccccc2F)n1	10	·	·	0	-0.3	-13	2448
Cc1ccc(CNC(=O)c2cccnc2Cl)cc1	2	7	9	4	2.8	-11	5329
COc1ccc(-c2ccc3nnc(SCC(=O)NCC4CCCO4)n3n2)cc1 (stereo not drawn)	9	7	4	4	1.3	-9	5710

2 compounds from above with just Sa RN4220 lethal and Autofluor counter.
| SMILES | Sa RN4220 lethal | Autofluor counter |
| --- | --- | --- |
| O=C1NC(=O)C2(CCCCCC2)N1 | 3.7 | 4506 |
| Cc1ccc2n(n1)c(=O)c(Cc1ccccc1)c([O-])[n+]2-c1ccccc1 | 4.7 | 1721 |
